Sfp inh: Sfp phosphopantetheinyl transferase inhibition | Biochemical Sfp PPTase activity, qHTS | AID 1490 | actives 3.5% (n = 310,000) | Potency, µM, without a hit: max response, negative = inhibition, usual class: inhibitors; active = well fitted inhibition curve with a large enough effect; inconclusive = small, poorly fitted or top-dose-only effect, or another doubt; inactive = no such curve, though single readings can be large or run the other way;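 note: the enzyme is Sfp with the accession as filed and its product quenches rhodamine fluorescence; potency is the fitted concentration of half-maximal effect; 0% = enzyme reaction without inhibitor and -100% = no enzyme wells; top concentration of the series not given in the record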
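Fluorescence-quenching assay with 15 nM Sfp, 5 uM rhodamine-CoA and 12.5 uM BHQ-2-labelled ybbR peptide in pH 7.6 Hepes/MgCl2 buffer. Enzyme was pre-incubated with compound for 15 min at room temperature. Rate was taken from the 30-min fluorescence change (525/598 nm).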
Menin MLL FP FL: menin-MLL binding inhibition, fluorescein peptide | Fluorescence polarization, fluorescein-MLL peptide displacement from menin | FP activity change, % at 61.4 µM | 290,000 tested, under 10 active | AID 1766; inconclusive = falling polarisation curve, or a change in total fluorescence; inactive = total fluorescence flat and polarisation flat or rising; no compound was filed as active; the % refers to the polarisation; negative = inhibition;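 note: % of control where 0% means no effect; inhibitors lower the polarisation; unlabelled MLL peptide was the positive control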
CtBP-E1A inh: inhibitors of CtBP/E1A interaction; AlphaScreen GST-E1A/His-CtBP binding, 1536-well; stronger effect = lower value; control for the full effect not named in the record; activity change, % (no concentration beside the values); actives 0.49% (n = 340,000); AID 651724; in the data active means activity change below about -65%; inconclusive means about -30% to -65%; inactive means above about -30%; note: % is set by controls: 0 for no effect and ±100 for the full control effect; compound concentration not given in the record
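In 5 uL wells, 23 nL compound meets equimolar GST-E1A and His-CtBP (5X stock 125 nM each) for 2 h, 37 °C. Beads (5X, 50 ug/mL) then 1 h, 37 °C, dark.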
TRPV1 potentiator: potentiators of human vanilloid receptor 1 (TRPV1) | Q8NER1 | TRPV1-expressing cells, Fluo-8 calcium influx, capsaicin EC20 potentiation; host cell line not named in the record; control for the full effect not named in the record | potentiation, % at 8.33 µM | actives 0.02% (n = 320,000) | AID 540277; active means potentiation above 80%; inconclusive means 30% to 80%; inactive means below 30%; note: 0% is about no effect
Target sequence (Q8NER1 whole entry, looked up): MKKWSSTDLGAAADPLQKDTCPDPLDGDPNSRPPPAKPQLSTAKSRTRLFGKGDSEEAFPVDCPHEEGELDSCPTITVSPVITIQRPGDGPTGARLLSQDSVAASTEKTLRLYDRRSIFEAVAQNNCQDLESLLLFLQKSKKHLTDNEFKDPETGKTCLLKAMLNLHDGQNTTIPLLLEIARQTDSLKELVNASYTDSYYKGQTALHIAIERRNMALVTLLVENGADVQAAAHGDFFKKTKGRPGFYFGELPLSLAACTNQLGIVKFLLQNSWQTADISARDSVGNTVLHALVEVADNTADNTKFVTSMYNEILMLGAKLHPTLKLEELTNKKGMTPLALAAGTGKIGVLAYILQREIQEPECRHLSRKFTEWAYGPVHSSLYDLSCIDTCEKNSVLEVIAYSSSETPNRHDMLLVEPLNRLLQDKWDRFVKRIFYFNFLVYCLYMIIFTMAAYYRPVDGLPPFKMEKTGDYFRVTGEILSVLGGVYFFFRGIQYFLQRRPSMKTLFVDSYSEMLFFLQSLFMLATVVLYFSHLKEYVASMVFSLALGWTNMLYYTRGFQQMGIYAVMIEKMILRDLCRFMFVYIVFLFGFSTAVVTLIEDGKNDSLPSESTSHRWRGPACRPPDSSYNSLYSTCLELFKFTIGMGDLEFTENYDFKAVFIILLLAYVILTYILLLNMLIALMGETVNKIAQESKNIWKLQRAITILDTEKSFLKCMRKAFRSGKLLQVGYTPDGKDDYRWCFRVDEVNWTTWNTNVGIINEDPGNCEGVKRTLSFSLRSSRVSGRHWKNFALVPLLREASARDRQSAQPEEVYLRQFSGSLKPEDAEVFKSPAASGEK
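TRPV1-expressing cells were cultured overnight at 35.5C and loaded with Fluo-8 calcium dye for 40 to 90 min at room temperature. After a 10 s baseline, compound was added and calcium influx was read kinetically for 3 min (ex 480/em 520 nm).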
gsp agonist: agonists of gsp mutant (McCune-Albright syndrome). actives 0.13% (n = 340,000). Potency, µM (top dose mostly 76.9 µM), inactives show at the highest dose activation (cAMP increase), hits mostly activators. gsp mutant cells, cAMP HTRF, 30 min; control for the full effect not named in the record. AID 624287; active = well fitted activation curve with a large enough effect; inconclusive = small, poorly fitted or top-dose-only effect, or another doubt; inactive = no such curve, though single readings can be large or run the other way; cell line not stated here;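 note: phosphodiesterase inhibitor Ro 20-1724 added with compounds to block cAMP breakdown; potency is the fitted concentration of half-maximal effect; nearly all actives have a fitted effect of over 60% in size; about a fifth of the inactives were tested at one dose only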
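Cells in DMEM/10% FBS with G418 were pretreated with compounds in DMSO plus […] (300 uM stock) for 30 min at 37C. cAMP was measured by HTRF (cAMP-d2 plus anti-cAMP antibody-K) after 30 min at room temperature.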
ClpP mod: qHTS Assay for Activators of ClpP. ATP-dependent Clp protease proteolytic subunit (Bacillus subtilis (strain 168)), P80244. purified B. subtilis ClpP, FRET peptide cleavage, 20 min. Potency, µM (top dose mostly 57.5 µM), without a hit: at the top dose activity change, negative = active. actives 1.9% (n = 340,000); active = well fitted falling curve with a large enough effect; inconclusive = small, poorly fitted or top-dose-only effect; inactive = no such curve, though single readings can be large or run the other way; note: potency is the fitted concentration of half-maximal effect; the source files actives as falling curves though it sought activators and does not explain the sign; nearly all actives have a fitted effect of over 65% in size; many hits overshoot -100%
Target sequence (P80244 whole entry, looked up): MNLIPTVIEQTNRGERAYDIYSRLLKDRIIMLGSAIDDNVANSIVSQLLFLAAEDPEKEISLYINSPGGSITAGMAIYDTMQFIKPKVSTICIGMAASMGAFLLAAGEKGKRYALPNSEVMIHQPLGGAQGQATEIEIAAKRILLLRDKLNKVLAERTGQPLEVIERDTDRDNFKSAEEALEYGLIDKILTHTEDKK
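Purified B. subtilis ClpP, 10 microg/mL final in Tris/HCl pH8 with KCl, BSA, glycerol and Tween-20, cleaved an Abz/nitrotyrosine-quenched decapeptide. Fluorescence (ex 320, em 430) was read at 0 and 20 min at room temperature. Delta was normalized to 5.8 microM ADEP and DMSO/no-enzyme controls.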
gsp antagonist: antagonists of gsp mutant (McCune-Albright syndrome). gsp-mutant cells, cAMP HTRF, 30 min; control for the full effect not named in the record. Potency, µM (top dose mostly 76.9 µM), inactives show at the top dose activity change, negative = inhibition, usual class: inhibitors. actives 0.4% (n = 340,000); active = falling curve of any shape with a large fitted effect; inconclusive = falling curve, mostly with a smaller effect; inactive = flat or rising curve; cell line not stated here;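 note: intracellular cAMP measured with PDE inhibitor Ro 20-1724 present during compound exposure; potency is the fitted concentration of half-maximal effect; % is set by controls: 0 for no effect and ±100 for the full control effect; nearly all actives have a fitted effect of over 65% in size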
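Cells, 2000/well, grown 16–24 h in DMEM 10% FBS with 0.5 mg/ml G418, then compounds plus […] (300 uM addition stock), 30 min at 37C. cAMP read by HTRF (cAMP-d2 and anti-cAMP antibody-K in lysis buffer) after 30 min RT.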
* marks the source's active call; other numbers are inactive results; [ ] = another dose, or the depositor's remark.

Results for O=C(CSc1nc(=O)[nH]c2c1CCCC2)Nc1cc(C(F)(F)F)cc(C(F)(F)F)c1 ?
CtBP-E1A inh: 13.1; TRPV1 potentiator: -3.2; gsp agonist: -1.8%; ClpP mod: -0.8%; gsp antagonist: -7.9%

Results for CC(=O)N1CCCc2cc(S(=O)(=O)N3CCCC(C(=O)Nc4cccc(C)c4)C3)ccc21 (stereo not given) ?
Sfp inh: 7.0%; Menin MLL FP FL: 0.4; CtBP-E1A inh: 2.4; TRPV1 potentiator: -4.0; gsp agonist: -12.6%; ClpP mod: -1.2%; gsp antagonist: inconclusive

How did O=C(CCNS(=O)(=O)c1cccs1)N1CCCCCC1 do in these assays?
Sfp inh: 15.7%; Menin MLL FP FL: 4.7; CtBP-E1A inh: 9.6; TRPV1 potentiator: 3.6; gsp agonist: 5.2%; ClpP mod: -3.8%; gsp antagonist: -9.1%

What do the screens show for `COc1ccc(NC(=O)COc2ccc(C)cc2)c([N+](=O)[O-])c1`?
Sfp inh: 14.0%; Menin MLL FP FL: 4.9; CtBP-E1A inh: -5.4; TRPV1 potentiator: 4.6; gsp agonist: -4.3%; gsp antagonist: 0.9%

Results for O=C(O)CNCC1COc2ccccc2O1 (stereo not given) ?
Sfp inh: -14.0%; Menin MLL FP FL: 0.8; CtBP-E1A inh: 5.6; TRPV1 potentiator: 6.1; gsp agonist: -6.4%; ClpP mod: -1.0%; gsp antagonist: 5.6%

What do the screens show for `COc1cc2[nH]c(C(=O)NCc3ccccc3)cc2c(OC)c1OC`?
Sfp inh: 18.2%; Menin MLL FP FL: -1.4; CtBP-E1A inh: -11.1; TRPV1 potentiator: -11.5; gsp agonist: -20.5%[15.4 µM]; gsp antagonist: -1.1%

How did CCN(CC(=O)NCc1ccc(Cl)cc1)C(=O)CSc1ccccc1 do in these assays?
CtBP-E1A inh: 5.3; TRPV1 potentiator: -33.6; gsp agonist: -13.0%; ClpP mod: 0.1%; gsp antagonist: 9.3%

Results for O=C(NCCN1CCOCC1)c1cccc(S(=O)(=O)N2CCCCC2)c1 ?
CtBP-E1A inh: -6.3; gsp agonist: -10.3%; ClpP mod: -1.0%; gsp antagonist: 5.3%

What do the screens show for `COc1ccc(CCNC(=O)C2(C)CCC(=O)N2Cc2ccc(C)cc2)cc1OC` (stereo not given)?
Sfp inh: 16.9%; Menin MLL FP FL: -6.2; CtBP-E1A inh: 2.1; TRPV1 potentiator: 3.8; gsp agonist: -48.5%[inhibitor]; ClpP mod: -0.8%; gsp antagonist: 8.2%

What do the screens show for `CN1CCN(c2ccc(CNC(=O)c3cc4ccccc4o3)cc2)CC1`?
Sfp inh: 24.5%; Menin MLL FP FL: 4.3; CtBP-E1A inh: -8.4; TRPV1 potentiator: 5.4; gsp agonist: -1.9%[15.4 µM]; gsp antagonist: -2.7%

How did CSc1ncccc1C(=O)Nc1ccncc1 do in these assays?
Sfp inh: 20.7%; CtBP-E1A inh: 5.3; TRPV1 potentiator: 9.1; gsp agonist: -2.0%; ClpP mod: -0.9%; gsp antagonist: 4.0%

What do the screens show for `C[C@@H]1CN([C@@H](C)CO)C(=O)c2cc(Br)cnc2O[C@H]1CN(C)S(=O)(=O)c1cccs1`?
CtBP-E1A inh: 3.4; gsp agonist: -6.7%; ClpP mod: 0.1%

What do the screens show for `CC1CC(C)CN(C(=O)COC(=O)c2ccc3ccccc3n2)C1` (stereo not given)?
CtBP-E1A inh: 8.2; TRPV1 potentiator: 16.2; gsp agonist: -21.7%; ClpP mod: -0.1%; gsp antagonist: -9.6%

Results for Cc1cc(C)n(-c2nc3ccccc3nc2Nc2ccc3c(c2)OCO3)n1 ?
Sfp inh: 7.2%; Menin MLL FP FL: 3.8; CtBP-E1A inh: 35.1; TRPV1 potentiator: 0.2; gsp agonist: -10.9%; ClpP mod: -0.2%; gsp antagonist: 5.7%

What do the screens show for `CCC(=O)Nc1nonc1-c1nc2ccccc2n1Cc1cccc2ccccc12`?
Sfp inh: 0.3%; Menin MLL FP FL: 3.8; CtBP-E1A inh: -0.3; TRPV1 potentiator: 5.7; gsp agonist: -2.3%; ClpP mod: inconclusive; gsp antagonist: 23.4%

Results for S=C(NCCCN1CCOCC1)N1CCN(c2nc(-c3ccccc3)cs2)CC1 ?
Sfp inh: 44.7µM*; Menin MLL FP FL: 11.4; CtBP-E1A inh: -17.0; TRPV1 potentiator: -1.7; gsp agonist: 4.0%; gsp antagonist: -2.6%

Results for CC(C)OC(=O)CSc1nnnn1-c1ccc2c(c1)OCCO2 ?
Sfp inh: 10.1%; Menin MLL FP FL: -0.7; CtBP-E1A inh: 2.2; TRPV1 potentiator: -5.7; gsp agonist: inconclusive; ClpP mod: -6.8%; gsp antagonist: -7.6%

What do the screens show for `COCCOc1cc(-n2ccnc2SC)c(Cl)cc1Cl`?
Sfp inh: 11.1%; Menin MLL FP FL: -1.0; CtBP-E1A inh: -0.2; TRPV1 potentiator: 7.6; gsp agonist: 2.7%; ClpP mod: 1.3%; gsp antagonist: 2.3%[15.4 µM]

What do the screens show for `Cc1ccc(-c2cc(C(=O)N3CCCc4ccccc43)c3ccccc3n2)cc1`?
Sfp inh: -15.3%; Menin MLL FP FL: -1.1; CtBP-E1A inh: 7.5; TRPV1 potentiator: 1.4; gsp agonist: 17.6%; ClpP mod: -0.6%; gsp antagonist: -7.6%

Results for Cn1cc(/C=N\O)nc2c(=O)n(-c3ccccc3)c(=O)nc1-2 ?
Sfp inh: 22.9%; Menin MLL FP FL: 0.9; CtBP-E1A inh: 0.1; TRPV1 potentiator: -7.5; gsp agonist: -4.3%[15.4 µM]; ClpP mod: -2.0%; gsp antagonist: 5.5%

What do the screens show for `CC(NC(=O)CC1Nc2ccccc2NC1=O)c1ccccc1` (stereo not given)?
Sfp inh: 10.2%; Menin MLL FP FL: -2.6; CtBP-E1A inh: 0.6; TRPV1 potentiator: -13.9; gsp agonist: -17.1%; ClpP mod: inconclusive; gsp antagonist: 7.3%

Results for Cc1ccnc(NC(=O)c2ccc3c(c2)S(=O)(=O)c2ccccc2C3=O)c1 ?
Sfp inh: 1.3%; Menin MLL FP FL: 3.3; CtBP-E1A inh: -1.3; TRPV1 potentiator: 3.3; gsp agonist: 1.0%[15.4 µM]; gsp antagonist: 18.2%

What do the screens show for `CCOc1ccc(C(=O)NC(=S)NCc2cccnc2)cc1[N+](=O)[O-]`?
Sfp inh: -2.7%; Menin MLL FP FL: 2.5; CtBP-E1A inh: -10.0; TRPV1 potentiator: 6.3; gsp agonist: 11.7%; ClpP mod: -1.1%; gsp antagonist: -15.7%

Results for CCOC(=O)c1c(S(=O)(=O)N2CCCC(C)C2)c(C)n(C)c1C (stereo not given) ?
Sfp inh: 15.4%; Menin MLL FP FL: 0.0; CtBP-E1A inh: -6.7; TRPV1 potentiator: -2.5; gsp agonist: inconclusive; ClpP mod: 1.0%; gsp antagonist: 14.6%

What do the screens show for `CC(=O)n1c(=O)c2ccccc2c(=O)n1-c1ccccc1`?
Sfp inh: 25.4%; Menin MLL FP FL: 5.7; CtBP-E1A inh: 5.2; TRPV1 potentiator: 21.3; gsp agonist: -1.2%[15.4 µM]; ClpP mod: 1.0%; gsp antagonist: 6.9%

Results for COc1ccc(/C=C(\C#N)C(=O)NCC(c2ccc(F)cc2)N2CCOCC2)cc1 (stereo not given) ?
Sfp inh: -1.1%; Menin MLL FP FL: -4.9; CtBP-E1A inh: -16.1; TRPV1 potentiator: -6.3; gsp agonist: 3.6%; ClpP mod: 0.9%; gsp antagonist: -29.0%

How did CN(C)CC(C)(C)CNC(=S)Nc1cc(S(=O)(=O)N2CCOCC2)ccc1Cl do in these assays?
Sfp inh: 4.1%; Menin MLL FP FL: 3.8; CtBP-E1A inh: 12.5; TRPV1 potentiator: -0.4; gsp agonist: 10.9%[15.4 µM]; gsp antagonist: 1.1%

Results for CN1CCN(CC(=O)N2c3ccccc3C(C)(c3ccc(Cl)cc3)CC2(C)C)CC1 (stereo not given) ?
Sfp inh: 9.4%; Menin MLL FP FL: 2.7; CtBP-E1A inh: -11.9; TRPV1 potentiator: 6.6; gsp agonist: -32.9%[inhibitor]; ClpP mod: -3.0%; gsp antagonist: -3.8%[15.4 µM]

What do the screens show for `Cc1ccc(SCCNC(=O)c2ccc(CN3CCOCC3)cc2)cc1`?
Sfp inh: 19.3%; Menin MLL FP FL: -5.2; CtBP-E1A inh: 1.9; TRPV1 potentiator: -25.6; gsp agonist: -0.8%; gsp antagonist: -6.8%

What do the screens show for `O=Cc1ccc(OCc2cccc(C(F)(F)F)c2)cc1O`?
Sfp inh: 11.7%; Menin MLL FP FL: 0.7; CtBP-E1A inh: 4.6; TRPV1 potentiator: -3.1; gsp agonist: -13.5%; gsp antagonist: -18.2%

What do the screens show for `COc1ccc(CN2CCN(C(=O)c3ccco3)CC2)c(OC)c1OC`?
CtBP-E1A inh: 8.2; gsp agonist: -18.3%; ClpP mod: 1.9%; gsp antagonist: 4.0%

How did C[C@@H]1ON(C)[C@H]2C[C@H]3c4cc(-c5cccc(F)c5)ccc4CCN3C(=O)[C@@H]12 do in these assays?
CtBP-E1A inh: -2.5; ClpP mod: 1.3%; gsp antagonist: -13.4%

How did CCc1ccccc1NC(=O)C1CCCN1S(=O)(=O)c1ccc(-c2ccc(=O)[nH]n2)s1 (stereo not given) do in these assays?
Sfp inh: -9.1%; Menin MLL FP FL: 7.6; CtBP-E1A inh: -26.9; TRPV1 potentiator: -3.1; gsp agonist: inconclusive; ClpP mod: -17.0%; gsp antagonist: inconclusive

High-throughput results (PubChem)
